# High-throughput results: PubChem, National Center for Advancing Translational Sciences (NCATS)
# PNC inhibitor: perinucleolar compartment assembly inhibition | 140,000 compounds, 3.1% hits | activity change (PNC), negative = inhibition, % at 10 µM | PC3M PTB-GFP, PNC prevalence imaging, 16 h; hits give low values;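 active means readout at or below -70, meaning at least 70% loss of cells showing the perinucleolar compartment, a nuclear body marking cancer cells; inconclusive means readout between -30 and a set limit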;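 further: plate controls were DMSO wells for no effect and camptothecin positive control wells for full effect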
#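 PC3M cells stably expressing PTB-GFP, 750–1000 cells/well, treated 16 h at 37 °C with compound (23 nl of library stock), in duplicate. After paraformaldehyde fixation and Hoechst stain, imaged at 20x; PNC prevalence scored by image analysis.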
# ALOX15B inhib: 15-hLO-2 (ALOX15B) enzyme inhibition. Potency, µM (titrated, usually from 57.1 µM), inactives show top-dose activity change, negative = inhibition, actives largely listed as inhibitors. AID 881. 110,000 compounds, 0.56% hits. purified 15hLO-2, xylenol orange hydroperoxide absorbance. O15296; active means well fitted inhibition curve with a large enough effect; inconclusive means small, poorly fitted or top-dose-only effect; inactive means no such curve, though single readings can be large or run the other way; further: potency means the concentration at half of the fitted maximal effect; nearly all actives have a fitted effect of over 60% in size; many of its hits are not listed in these tables
# Target sequence (O15296 whole entry, looked up): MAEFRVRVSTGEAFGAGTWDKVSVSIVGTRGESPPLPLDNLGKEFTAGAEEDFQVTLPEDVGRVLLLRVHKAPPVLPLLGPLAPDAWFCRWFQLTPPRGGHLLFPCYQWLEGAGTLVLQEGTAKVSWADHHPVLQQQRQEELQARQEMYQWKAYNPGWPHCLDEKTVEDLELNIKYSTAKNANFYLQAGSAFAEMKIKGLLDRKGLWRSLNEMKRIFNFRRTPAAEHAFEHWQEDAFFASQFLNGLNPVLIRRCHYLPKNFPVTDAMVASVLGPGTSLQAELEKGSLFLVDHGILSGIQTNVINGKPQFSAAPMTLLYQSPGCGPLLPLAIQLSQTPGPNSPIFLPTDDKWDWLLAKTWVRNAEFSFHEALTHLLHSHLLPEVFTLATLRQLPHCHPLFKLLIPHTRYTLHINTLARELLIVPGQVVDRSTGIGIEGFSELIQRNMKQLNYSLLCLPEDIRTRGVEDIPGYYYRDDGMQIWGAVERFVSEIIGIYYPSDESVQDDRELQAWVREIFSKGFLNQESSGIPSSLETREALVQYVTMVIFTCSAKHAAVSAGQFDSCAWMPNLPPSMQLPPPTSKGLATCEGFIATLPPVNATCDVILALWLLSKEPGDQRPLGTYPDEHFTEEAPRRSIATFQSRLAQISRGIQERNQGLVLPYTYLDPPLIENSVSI
#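 Read-out: hydroperoxide product oxidises ferrous iron, measured as xylenol orange complex via the 573-to-405 nm absorbance ratio after 30 min. Reaction: 50 nM enzyme, 15 min compound preincubation, 45 uM arachidonic acid, 90 min RT, Hepes pH 7.5 with Triton X-100.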
# Numbers without * were called inactive; ? = inconclusive; nt = not tested or not shown; & = joins results of further samples; [ ] = dose if it differs, or a comment. Unless noted, on the % scale 0 is the no-effect control and ±100 the full control effect. Some of the compounds tested; most or all hits stand in other tables.
> Cc1ccccc1Nc1nnc(SCC(=O)NCc2ccco2)s1
  PNC inhibitor = ?
  ALOX15B inhib = -18%

> CCOc1ccccc1C(=O)N1CCOCC1
  PNC inhibitor = -13
  ALOX15B inhib = 3%

> Cc1cc(C(F)(F)F)nc(SCC(=O)NC2=NC(=O)C(C)S2)n1 (stereo not drawn)
  PNC inhibitor = 39
  ALOX15B inhib = 0%

> CN1C2CCC1CC(OC(=O)C(CO)c1ccccc1)C2 (stereo not drawn)
  PNC inhibitor = nt
  ALOX15B inhib = 17%[0.0915 µM]

> CCCc1cc(C(N)=O)c(NC(C)=O)s1
  PNC inhibitor = -17
  ALOX15B inhib = 7%

> O=C(Cc1ccc(Cl)cc1)Nc1ccc(N2CCN(C(=O)c3ccco3)CC2)cc1
  PNC inhibitor = ?
  ALOX15B inhib = -1%

> O=C(c1ccco1)N(Cc1ccc([N+](=O)[O-])cc1)c1ccc(Br)cc1
  PNC inhibitor = 107
  ALOX15B inhib = -6%

> COc1ccc(C(=O)N/C(=C/c2cccs2)c2nc3ccccc3[nH]2)cc1OC
  PNC inhibitor = 10
  ALOX15B inhib = nt

> Cc1cnc(NC(=O)C2=C(O)c3ccccc3S(=O)(=O)N2C)s1
  PNC inhibitor = -4
  ALOX15B inhib = -3%&-7%

> CN1CCCC1c1cccnc1 (stereo not drawn)
  PNC inhibitor = nt
  ALOX15B inhib = -15%

> CC(CC(=O)Nc1nc2ccccc2[nH]1)c1ccccc1 (stereo not drawn)
  PNC inhibitor = -5
  ALOX15B inhib = nt

> CC(C)c1ccc(NC(=O)COC(=O)C2=COCCO2)cc1
  PNC inhibitor = -23
  ALOX15B inhib = -4%

> O=C(O)C[C@@H](O)C(=O)O
  PNC inhibitor = 0
  ALOX15B inhib = nt

> CC1(C)SC2C(NC(=O)C(N)c3ccccc3)C(=O)N2C1C(=O)O (stereo not drawn)
  PNC inhibitor = nt
  ALOX15B inhib = -6%

> Cc1nn(C)cc1C(C(=O)NC1CCCCC1)N(C(=O)c1cnccn1)c1ccc(Oc2ccccc2)cc1 (stereo not drawn)
  PNC inhibitor = -15
  ALOX15B inhib = nt

> C[C@@H]1C[C@H]2[C@@H]3C[C@H](F)C4=CC(=O)C=C[C@@]4(C)[C@]3(F)[C@H](O)C[C@]2(C)[C@@]1(O)C(=O)CO
  PNC inhibitor = nt
  ALOX15B inhib = 5%[25.6 µM]

> CCOC(=O)/C(C#N)=C/C1=C(N2CCCC2)CC(C)(CC)OC1 (stereo not drawn)
  PNC inhibitor = 10
  ALOX15B inhib = -1%

> COc1ccc(N2CCN(C(=O)CC3NC4CCCCC4NC3=O)CC2)cc1 (stereo not drawn)
  PNC inhibitor = 34
  ALOX15B inhib = -1%

> O=C(CSCc1ccc(F)cc1)N1CCN(c2ccccc2)CC1
  PNC inhibitor = 11
  ALOX15B inhib = 5%

> Cc1cnc(NC(=O)C2C(=O)c3ccccc3S(=O)(=O)N2C)s1 (stereo not drawn)
  PNC inhibitor = nt
  ALOX15B inhib = -11%[0.0915 µM]

> CC1(C)S[C@@H]2[C@H](NC(=O)[C@H](N)c3ccccc3)C(=O)N2[C@H]1C(=O)O
  PNC inhibitor = 20&21
  ALOX15B inhib = -2%[0.0915 µM]

> Cn1c(NCCN2CCOCC2)nc2c1c(=O)n(Cc1cccc(Cl)c1)c(=O)n2C
  PNC inhibitor = 17
  ALOX15B inhib = 12%

> CC1(C)CC(=O)C2=C(C1)OC(N)=C(C#N)C2c1ccccc1OC(=O)N1CCOCC1 (stereo not drawn)
  PNC inhibitor = -29
  ALOX15B inhib = 2%

> Clc1ccc(-c2noc(CN3CCN(c4ccccc4)CC3)n2)cc1
  PNC inhibitor = -25
  ALOX15B inhib = 4%[2.29 µM]

> NCCS(=O)(=O)O
  PNC inhibitor = nt
  ALOX15B inhib = 2%&12%

# 17 structures from above, arranged by SMILES length, falling.
> C[C@@H]1C[C@H]2[C@@H]3C[C@H](F)C4=CC(=O)C=C[C@@]4(C)[C@]3(F)[C@H](O)C[C@]2(C)[C@@]1(O)C(=O)CO
  PNC inhibitor = nt
  ALOX15B inhib = 5%[25.6 µM]

> Cc1nn(C)cc1C(C(=O)NC1CCCCC1)N(C(=O)c1cnccn1)c1ccc(Oc2ccccc2)cc1 (stereo not drawn)
  PNC inhibitor = -15
  ALOX15B inhib = nt

> CC1(C)S[C@@H]2[C@H](NC(=O)[C@H](N)c3ccccc3)C(=O)N2[C@H]1C(=O)O
  PNC inhibitor = 20&21
  ALOX15B inhib = -2%[0.0915 µM]

> CC1(C)CC(=O)C2=C(C1)OC(N)=C(C#N)C2c1ccccc1OC(=O)N1CCOCC1 (stereo not drawn)
  PNC inhibitor = -29
  ALOX15B inhib = 2%

> O=C(Cc1ccc(Cl)cc1)Nc1ccc(N2CCN(C(=O)c3ccco3)CC2)cc1
  PNC inhibitor = ?
  ALOX15B inhib = -1%

> COc1ccc(C(=O)N/C(=C/c2cccs2)c2nc3ccccc3[nH]2)cc1OC
  PNC inhibitor = 10
  ALOX15B inhib = nt

> CC1(C)SC2C(NC(=O)C(N)c3ccccc3)C(=O)N2C1C(=O)O (stereo not drawn)
  PNC inhibitor = nt
  ALOX15B inhib = -6%

> COc1ccc(N2CCN(C(=O)CC3NC4CCCCC4NC3=O)CC2)cc1 (stereo not drawn)
  PNC inhibitor = 34
  ALOX15B inhib = -1%

> Cc1cnc(NC(=O)C2C(=O)c3ccccc3S(=O)(=O)N2C)s1 (stereo not drawn)
  PNC inhibitor = nt
  ALOX15B inhib = -11%[0.0915 µM]

> Clc1ccc(-c2noc(CN3CCN(c4ccccc4)CC3)n2)cc1
  PNC inhibitor = -25
  ALOX15B inhib = 4%[2.29 µM]

> O=C(CSCc1ccc(F)cc1)N1CCN(c2ccccc2)CC1
  PNC inhibitor = 11
  ALOX15B inhib = 5%

> Cc1ccccc1Nc1nnc(SCC(=O)NCc2ccco2)s1
  PNC inhibitor = ?
  ALOX15B inhib = -18%

> CN1C2CCC1CC(OC(=O)C(CO)c1ccccc1)C2 (stereo not drawn)
  PNC inhibitor = nt
  ALOX15B inhib = 17%[0.0915 µM]

> CCCc1cc(C(N)=O)c(NC(C)=O)s1
  PNC inhibitor = -17
  ALOX15B inhib = 7%

> CCOc1ccccc1C(=O)N1CCOCC1
  PNC inhibitor = -13
  ALOX15B inhib = 3%

> O=C(O)C[C@@H](O)C(=O)O
  PNC inhibitor = 0
  ALOX15B inhib = nt

> NCCS(=O)(=O)O
  PNC inhibitor = nt
  ALOX15B inhib = 2%&12%

# Other records follow:
# Results follow in this order: PNC inhibitor	ALOX15B inhib
> O=C1OCCN1/N=C\c1ccc([N+](=O)[O-])o1
    nt	-3%[25.6 µM]
> COc1ccc(OC2C(=O)N(CCc3ccc(OC)c(OC)c3)C2c2ccc3c(c2)OCO3)cc1 (stereo not drawn)
    ?	3%[11.4 µM]
> Cc1ccc(S(=O)(=O)N[C@H](C(=O)N2CCC(C(=O)N3CCC[C@H]3C(=O)O)CC2)C(C)C)cc1
    19	-9%
> O=C(Nc1ccsc1C(=O)NC1CC1)c1ccccc1
    27	3%
> O=C(O)C1CC=CCC1C(=O)NCc1cn2ccccc2n1 (stereo not drawn)
    ?	29%
> C[C@@H]1C[C@H]2[C@@H]3C[C@H](F)C4=CC(=O)C=C[C@]4(C)[C@@]3(F)[C@@H](O)C[C@]2(C)[C@@]1(O)C(=O)CO
    -16	nt
> NCCC[C@@H](N)C(=O)O
    nt	2%[11.4 µM]
> CCOC(=O)c1n[nH]c2ccccc12
    27	nt
> O=C(CCS(=O)(=O)c1ccc(Br)cc1)N1CCN(c2ccccc2F)CC1
    15	0%
> COC(=O)NNC(=S)NCc1ccc(C)cc1
    -18	nt
